Screening data (PubChem)
Autofluor counter = flagged as autofluorescent in microsphere protease counterscreen; AID 624483; 360,000 compounds, 3.1% hits; fluorescence intensity (concentration not given with the values); compound autofluorescence counterscreen, microsphere flow cytometry; hits give high values;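 active = at least 3 SD above the mean of all compounds, about 16000 in these data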;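 note: 100 nL of 1 mM stock went into each well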
The depositor's hits bear a star. Only part of the results is shown; count on the stated rates, not on these rows.

SMILES	Autofluor counter
COCCNC(=O)C1(C)CCCN(CCS(=O)(=O)c2ccc(C)cc2)C1 (centres undefined)	4442
CC1(C)OC(=O)C2=C(C[C@@H](CCc3ccccc3)O[C@H]2C2CCCC2)O1	6060
C[C@@H]1CN([C@@H](C)CO)C(=O)CCCn2nncc2CO[C@H]1CN(C)Cc1ccccc1	3880
C[C@H](CO)N1C[C@H](C)[C@H](CN(C)C(=O)Cc2ccncc2)Oc2ncc(Br)cc2C1=O	3505
O=C(Nc1ccccc1)C1Cc2c(-c3cccc(F)c3)ccnc2O1 (centres undefined)	3928
CC1CCCCC1NC(=O)CSc1nnc(-c2ccco2)n1N (centres undefined)	3506
CCOc1ccccc1N(CC(=O)N1CCN(Cc2ccccc2)CC1)S(=O)(=O)c1ccccc1	4227
CN1OC[C@@H]2CN(C(=O)C(C)(C)C)[C@H](c3ccc(-c4cccnc4)cc3)C[C@@H]21	4395
COC(=O)c1ccc2nc(-c3ccco3)c(Cc3ccccc3)n2c1	6134
CC(C)Oc1cc(F)ccc1-c1cc(C(=O)Nc2ccccc2)[nH]n1	2961
Cc1cccnc1CNC(=O)C1(C)CCCN1CC(C)C (centres undefined)	4234
CC1(C(=O)NCc2ccc3c(c2)OCO3)CCN1Cc1csc2ccccc12 (centres undefined)	3329
CC(=O)Nc1cccc(-c2ccnc3c2CC(C)(C(=O)Nc2cccc(C(C)=O)c2)O3)c1 (centres undefined)	3818
COc1ccc(-c2cnc(C(N)=O)c(=O)[nH]2)cc1	2831
Cc1cc(Cl)ccc1-c1nc(NC(C)C)nc2ccsc12	3509
CC(C)NC(=O)c1cc(C2CCCCN2C(=O)c2ccc(C(C)C)cc2)on1 (centres undefined)	3716
CC(=O)Nc1c(C#N)c(-c2ccccc2)c(C#N)c(=O)n1-c1ccc(C)cc1	3346
Cc1ccc([C@H]2C[C@H](O)[C@@H](n3cc(COC(=O)c4ccccc4)nn3)CN2C(=O)C2CCCCC2)cc1	3520
COc1ccc(OCCNC(=O)C2(C)CCN2Cc2ccc3ccccc3c2)cc1 (centres undefined)	3961
Cc1ccc(S(=O)(=O)N2CCCCC2)cc1NC(=O)c1ccc(=O)[nH]c1	3782
CN(Cc1ccccc1)c1cc2c(c3c1ccn3C)C1CCC2C1 (centres undefined)	5360
COc1ccc(CN2CCC[C@]3(N[C@H](c4ccc(C(F)(F)F)cc4)[C@@H]4C(=O)N(Cc5ccccc5)C(=O)[C@@H]43)C2=O)cc1	3536
O=C(NCc1ccccc1)c1cnc(Cc2c[nH]c3ccccc23)c(I)c1	3347
COc1ccc(Cn2cc(Cn3c4ccccc4c(=O)n3C(C)C)nn2)cc1	4135
CN(c1cccc(F)c1)c1cc2c(c3c1ccn3C)C1CCC2C1 (centres undefined)	4440

Other results:
SMILES	Autofluor counter
CC(C)C[C@H]1CNC(=S)N1C[C@H]1CCCN1C[C@H](CC(C)C)N1C[C@H](Cc2ccc(O)cc2)N(CC2CCCCCC2)C1=S	5701
CN(C)C1CCCCC=CC(=O)NC1 (centres undefined)	2708
COc1cc(CN2C[C@@H](CO)O[C@@H](n3cnc4c(NC5CC5)ncnc43)C2)cc(OC)c1OC	2944
O=C(Oc1ccc[nH]c1=O)c1ccc(F)cc1	3943
CC1C(=O)N(Cc2cn(CC3CCCCC3)nn2)CCS(=O)(=O)N1Cc1ccc(-c2ccc(F)nc2)cc1 (centres undefined)	3648
CCc1nc2ccc(C(=O)NCc3cccs3)cn2c1N(C)Cc1nccs1	2847
COCCNC(=O)C1(C)CCCN(C(=O)c2ccc(OC)c(OC)c2)C1 (centres undefined)	3833
Cc1cccc(OC(=O)Nc2ccc(C(=O)O)c(O)c2)c1	2779
O=C(/C=C/c1ccc2c(c1)OCO2)NCCS(=O)(=O)N1CCN(c2ccccc2)CC1	3004
CCc1nc2ccc(C(=O)Nc3cccc(NS(C)(=O)=O)c3)cn2c1N(C)C(=O)Cc1ccccc1	3831
CC1(C)OC(=O)C2=C(C[C@@H](C3CCCC3)O[C@@H]2c2ccc(Cl)cc2)O1	6120
COc1ccc(C(C)(O)c2nc(-c3ccncc3)cs2)cc1 (centres undefined)	3089
COc1ccc(NC(=O)C2(C)CCN2C2Cc3ccccc3C2)cc1OC (centres undefined)	3453
CCCNC(=O)N(C)C[C@H]1Oc2cc(Br)ccc2S(=O)(=O)N([C@@H](C)CO)C[C@@H]1C	3825
COc1ccc(C(=O)OCC(=O)N2CCN(C(=O)c3ccco3)CC2)c(OC)c1OC	4031
CCOc1ccc(CCN2C(=O)C(=O)N([C@@H](Cc3ccccc3)CN3CCC[C@H]3CN3C(=O)C(=O)NC[C@@H]3CC(C)C)C[C@@H]2Cc2ccc(O)cc2)cc1	6347
CN(C)CCN1CCN(C2CN(Cc3cn(Cc4ccccc4)nn3)S(=O)(=O)C2)CC1 (centres undefined)	5978
CC1(C(=O)Nc2ccc(Cl)c(Cl)c2)CCN1Cc1ccccc1OC(F)F (centres undefined)	3059
COc1ccccc1Cn1c(C)c(C(=O)NCc2ccco2)sc1=O	6046
N#CC(=C1C=C(Br)C(=NO)C=C1Cl)c1cccc2ccccc12	2870
CCOC(=O)[C@]12Cc3cc(C)ccc3[C@H]1N(C)C(=O)c1cc(OC)ccc12	5901
CCCCC1Cc2[nH]c(=S)[nH]c(=O)c2C(C(C)C)O1 (centres undefined)	4128
Cc1ccccc1CNC(=O)C(C)Sc1ccccc1 (centres undefined)	4139
CCc1nc2ccc(C(=O)NCc3ccc(OC)cc3)cn2c1N(CC)Cc1cccc(Br)c1	4317
CC1(C(=O)NS(=O)(=O)c2ccccc2)CCN1C(=O)Cc1cccs1 (centres undefined)	4172

Some of the entries so far, comma-delimited:
mol,Autofluor counter
CC(C)C[C@H]1CNC(=S)N1C[C@H]1CCCN1C[C@H](CC(C)C)N1C[C@H](Cc2ccc(O)cc2)N(CC2CCCCCC2)C1=S,5701
CN(C)C1CCCCC=CC(=O)NC1 (centres undefined),2708
COc1cc(CN2C[C@@H](CO)O[C@@H](n3cnc4c(NC5CC5)ncnc43)C2)cc(OC)c1OC,2944
O=C(Oc1ccc[nH]c1=O)c1ccc(F)cc1,3943
CC1C(=O)N(Cc2cn(CC3CCCCC3)nn2)CCS(=O)(=O)N1Cc1ccc(-c2ccc(F)nc2)cc1 (centres undefined),3648
CCc1nc2ccc(C(=O)NCc3cccs3)cn2c1N(C)Cc1nccs1,2847
COCCNC(=O)C1(C)CCCN(C(=O)c2ccc(OC)c(OC)c2)C1 (centres undefined),3833
Cc1cccc(OC(=O)Nc2ccc(C(=O)O)c(O)c2)c1,2779
O=C(/C=C/c1ccc2c(c1)OCO2)NCCS(=O)(=O)N1CCN(c2ccccc2)CC1,3004
CCc1nc2ccc(C(=O)Nc3cccc(NS(C)(=O)=O)c3)cn2c1N(C)C(=O)Cc1ccccc1,3831
CC1(C)OC(=O)C2=C(C[C@@H](C3CCCC3)O[C@@H]2c2ccc(Cl)cc2)O1,6120
COc1ccc(C(C)(O)c2nc(-c3ccncc3)cs2)cc1 (centres undefined),3089
COc1ccc(NC(=O)C2(C)CCN2C2Cc3ccccc3C2)cc1OC (centres undefined),3453
CCCNC(=O)N(C)C[C@H]1Oc2cc(Br)ccc2S(=O)(=O)N([C@@H](C)CO)C[C@@H]1C,3825

(listing goes on)
SMILES	Autofluor counter
COc1ccc(-c2noc(CCC(=O)NC3CCCCCC3)n2)cc1OC	3045
CC(C)NC(=O)C1(C)CCN1C(=O)C(c1ccccc1)c1ccccc1 (centres undefined)	3948
CN(C)CCNc1ncnc2c1ncn2[C@H]1CN(C)C[C@@H](CO)O1	4402
CC(C)CC(N)c1csc(NC(=O)Nc2ccccc2-c2ccccc2)n1 (centres undefined)	3599
O=C1NC[C@@H](CCCCN2CCN(Cc3ccccc3)C(=O)C2=O)N(CCC2CCCCC2)C1=O	4232
COc1ccc(S(=O)(=O)N2CCC(C(=O)N[C@@H](C)C(=O)NCc3ccccn3)CC2)cc1	3546
Cc1ccc(C(=O)Nc2c(-c3ccc(Cl)cc3)[nH][nH]c2=O)cc1	4338
O=C(O)C(Cc1ccccc1)N1C(=O)C2C3CCC(C3)C2C1=O (centres undefined)	2767
NC(Cc1ccccc1)c1csc(NC(=O)Nc2ccccc2Oc2ccccc2)n1 (centres undefined)	2956
COc1cccc(C(c2nnnn2Cc2ccccc2)N2CCC(n3c(=O)[nH]c4ccccc43)CC2)c1OC (centres undefined)	5901
O=S1(=O)CCN(C2CC2)CC1	3417
O=C(CC(CC(=O)c1ccccc1)c1ccco1)c1ccccc1	3589
CC1(C(=O)NCc2ccccn2)CCN1C(=O)Cc1ccc(Cl)cc1Cl (centres undefined)	2969
COc1cc(-c2coc3c(C(=O)NCc4ccccc4)cccc23)ccc1O	3771
CC(C)C[C@H]1CNC(=O)C(=O)N1C[C@H]1CCCN1C[C@H](CC(C)C)N1C[C@H](Cc2ccccc2)N(CCc2ccccc2)C(=O)C1=O	6705
COc1ccc(CCN2C(=O)COc3ccccc3C2C(=O)Nc2c(C)cccc2C)cc1OC (centres undefined)	6290
CN1OC[C@@H]2CN(C(=O)NC3CCCCC3)[C@H](c3ccc(N4CCCCC4)cc3)C[C@@H]21	7045
COc1cc(-c2cc(NC=O)c3ncc(-c4ccc(C(C)=O)cc4)n3c2)ccc1O	3095
O=C(Nc1nnc([C@@H]2O[C@H](CO)[C@@H](O)[C@H]2O)s1)Nc1cccc2c1CCCC2	3567
CCOC(=O)c1cc(OC)c2cccc(CN3CCC(C)(C(=O)NCCOC)C3)c2c1 (centres undefined)	2981
O=C(CN1C(=O)c2cccc([N+](=O)[O-])c2C1=O)N1CCc2ccccc2C1	3728
O=C(C1CCCCC1)N1C[C@@H](n2cc(-c3ccc(F)cc3)nn2)[C@H](O)C[C@@H]1c1ccccc1	3384
CCOC(=O)c1cc(-c2cccc(O)c2)oc1C	5283
CCOc1ccc(C(=O)CCC(=O)NN2CCCCC2)cc1	3680
CCOc1ccc(Oc2ccccc2NC(=O)CCc2nc3ccccc3c(=O)[nH]2)cc1	3530

New compounds follow.
SMILES	Autofluor counter
Cc1ccccc1-c1cc2nc(NCCOc3ccccc3Cl)n(C)c(=O)c2s1	3802
CN(C)P1(=O)N(C)CCN1C	6403
Cc1ccc([C@@H]2C[C@H]3[C@@H](CN2S(=O)(=O)c2ccc(Cl)cc2)C(=O)C[C@@H](c2ccc(C)cc2)N3S(=O)(=O)c2ccc(Cl)cc2)cc1	3749
COCCCNC(=O)C[C@@H]1C[C@@]2(C(=O)OC)CCCCC=C2N(Cc2ccco2)C1=O	5758
COc1cc(C(O)c2nc(-c3cc(F)cc(F)c3)cs2)ccc1F (centres undefined)	3673
Cc1ccc(CN2C(=O)C(F)(F)Oc3ccc(C)cc32)cc1	2899
CCC1=C(NCc2ccccc2)COC1=O	3412
CC1C2CCC(C2)C1OC(=O)c1ccccc1C(=O)O (centres undefined)	4028
OCC[C@@H]1C[C@H](O)[C@@H](O)[C@@]2(OCc3ccc(CO)cc32)O1	5931
CCCS(=O)(=O)NC(=O)C1(C)CCCN(C(=O)COc2ccccc2)C1 (centres undefined)	3543
CC(=O)c1cccc(-c2ccnc3c2CC(C(=O)N2CCN(C)CC2)O3)c1 (centres undefined)	2785
COc1ccc(CC(=O)O/N=C(\N)c2ccncc2)cc1OC	3717
N#Cc1ncn(C2OC(CO)C(O)C2O)c1N (centres undefined)	2883
COc1ccc(CC(N)c2csc(NC(=O)Nc3ccccc3C(C)(C)C)n2)cc1 (centres undefined)	3476
COc1ncc(-c2ccc(N3C(c4ccsc4)=Cc4ccc(F)cc4C3CC(=O)c3ccco3)cc2)cn1 (centres undefined)	5100
COc1cc(/C=N/Nc2nc(C)cc(C)n2)ccc1O	3995
COCCNc1nc(NCc2ccccc2F)c2sccc2n1	3805
CCOC(=O)c1c(-c2ccc(N(C)C)cc2)oc2c1C(OC)CC2 (centres undefined)	5697
Cc1ccc(S(=O)(=O)N2CCC(=O)N([C@H](COCc3ccc(Cl)cc3)C(C)C)CC2)cc1	5002
COc1cccc(C(=O)N2CCN(Cc3nc(-c4ccoc4)oc3C)CC2)c1	3431
CC(=O)NC(c1ccccc1)c1nc(-c2ccc(S(C)(=O)=O)cc2)cs1 (centres undefined)	3866
CN(C)c1cccc(NC(=O)c2cccc3c(-c4ccc(F)c(F)c4)coc23)c1	3835
Cc1nc2ccc(Cl)cn2c1[N+](=O)[O-]	3963
Cc1cc2oc(=O)cc(CN3CCCC3)c2cc1Cl	5796
O=C(NCc1c(Cl)cccc1Cl)c1[nH]c(C(F)(F)F)nc1-c1ccccc1	5254

(listing goes on)
SMILES	Autofluor counter
Cc1nc(C(F)(F)F)ccc1C(=O)N1CCCC(C)(C(=O)O)C1 (centres undefined)	2808
COCCNC(=O)C1(C)CCCN(CCSc2ccccc2)C1 (centres undefined)	3837
Cc1ccc(CN2CCC[C@]3(N[C@H](c4ccc(C(F)(F)F)cc4)[C@@H]4C(=O)N(C)C(=O)[C@@H]43)C2=O)cc1	3499
COc1ccc(C#Cc2cnc3c(c2)C(=O)N([C@H](C)CO)C[C@H](C)[C@@H](CN(C)C(=O)Nc2cccc(OC)c2)O3)cc1	3795
CCc1nc2c(OCc3ccc(Cl)cc3)cccn2c1N(C=O)Cc1ccc(OC)cc1	3915
O=C1NCN(c2ccccc2)C12CCN(C(c1cccs1)c1nnnn1Cc1ccccc1)CC2 (centres undefined)	5250
COc1ccc(-c2ccc(CN3C(CC(C)C)C(=O)N(Cc4cn(Cc5ccco5)nn4)CCS3(=O)=O)cc2)cc1OC (centres undefined)	3390
CC(=O)OCC(C)n1[nH]c2ccccc2c1=O (centres undefined)	4454
[O-][n+]1ccc(CC(O)(C(F)(F)F)C(F)(F)F)cc1	3225
COc1cc2c3c(cccc3c1)C(=O)N(CCN1CCCC1)C2=O	3813
COc1cccc(C(C)(O)c2nc(-c3ccc(Cl)cc3)cs2)c1 (centres undefined)	3558
O=C(C1CC(=O)N(c2ccc(F)c(Cl)c2)C1)N1CCOCC1 (centres undefined)	3370
Cc1cccc(OCC(=O)N2CCc3ccccc3C2)c1C	3885
COc1cc(NCCCCC(C)N)c2nccc(C)c2c1 (centres undefined)	3185
CCc1cc(-c2nnn(CCC3COCCO3)c2CC)ccc1-c1cn(CCc2c[nH]c3ccccc23)nn1 (centres undefined)	3795
